# Screening results deposited in PubChem BioAssay by National Center for Advancing Translational Sciences (NCATS).
# ClpP mod – qHTS Assay for Activators of ClpP | ATP-dependent Clp protease proteolytic subunit (Bacillus subtilis (strain 168)), P80244 | purified B. subtilis ClpP, FRET peptide cleavage, 20 min | Potency, µM (titrated, usually from 57.5 µM), for inactives: at the top dose activity change, negative = active | 340,000 tested, 1.9% active; active = well fitted falling curve with a large enough effect; inconclusive = small, poorly fitted or top-dose-only effect; inactive = no such curve, though single readings can be large or run the other way; also: potency is read from the fitted curve at half-maximal effect; the source files actives as falling curves though it sought activators and does not explain the sign; nearly all actives have a fitted effect of over 65% in size; many hits overshoot -100%
# Target sequence (P80244 whole entry, looked up): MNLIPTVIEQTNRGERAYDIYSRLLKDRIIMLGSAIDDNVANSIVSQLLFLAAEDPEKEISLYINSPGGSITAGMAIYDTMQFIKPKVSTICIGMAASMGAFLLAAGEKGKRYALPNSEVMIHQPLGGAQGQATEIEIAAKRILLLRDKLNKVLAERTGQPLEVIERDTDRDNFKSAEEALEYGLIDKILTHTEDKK
#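 FRET quenching reversal measured ClpP activation: 10 microg/mL B. subtilis ClpP at pH 8 with the FRET-FV decapeptide, read at 430 nm after 320 nm excitation. The 20-min minus 0-min signal was scaled between DMSO/no-enzyme wells and ADEP (5.8 microM final).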
# TRPV1 PAM – potentiators of human vanilloid receptor 1 (TRPV1); Q8NER1; TRPV1-expressing cells, Fluo-8 calcium influx, capsaicin EC20 potentiation; host cell line not named in the record; control for the full effect not named in the record; potentiation, % at 8.33 µM; 320,000 tested, 0.02% active; AID 540277; active means potentiation above 80%; inconclusive means 30% to 80%; inactive means below 30%; also: 0% is about no effect
# Target sequence (Q8NER1 whole entry, looked up): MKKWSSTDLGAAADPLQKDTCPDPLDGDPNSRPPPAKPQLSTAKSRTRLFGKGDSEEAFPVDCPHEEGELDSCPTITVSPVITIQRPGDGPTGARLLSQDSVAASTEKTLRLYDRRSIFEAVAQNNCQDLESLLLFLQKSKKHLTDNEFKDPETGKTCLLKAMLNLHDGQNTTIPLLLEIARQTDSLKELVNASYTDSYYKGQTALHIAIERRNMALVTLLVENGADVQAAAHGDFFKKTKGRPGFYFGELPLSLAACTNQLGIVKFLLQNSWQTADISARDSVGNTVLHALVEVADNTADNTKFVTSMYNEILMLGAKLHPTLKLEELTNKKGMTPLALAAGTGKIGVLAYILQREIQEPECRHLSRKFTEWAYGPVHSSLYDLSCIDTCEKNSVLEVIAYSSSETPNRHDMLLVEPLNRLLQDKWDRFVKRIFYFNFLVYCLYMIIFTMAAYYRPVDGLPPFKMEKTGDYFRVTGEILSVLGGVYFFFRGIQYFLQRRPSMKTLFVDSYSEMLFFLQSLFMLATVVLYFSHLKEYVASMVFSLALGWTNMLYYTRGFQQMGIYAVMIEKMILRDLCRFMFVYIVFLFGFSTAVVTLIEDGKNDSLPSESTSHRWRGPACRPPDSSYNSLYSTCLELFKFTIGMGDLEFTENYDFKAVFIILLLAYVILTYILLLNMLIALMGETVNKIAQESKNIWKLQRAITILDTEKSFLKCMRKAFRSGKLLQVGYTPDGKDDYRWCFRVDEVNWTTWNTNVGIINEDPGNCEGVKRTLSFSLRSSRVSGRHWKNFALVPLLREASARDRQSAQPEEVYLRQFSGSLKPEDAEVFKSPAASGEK
#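 TRPV1-expressing cells were cultured overnight at 35.5C and loaded with Fluo-8 calcium dye for 40 to 90 min at room temperature. After a 10 s baseline, compound was added and calcium influx was read kinetically for 3 min (ex 480/em 520 nm).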
# Menin-MLL FL inh – displaces fluorescein MLL peptide from human menin. Fluorescence polarization, fluorescein-MLL peptide displacement from menin. FP activity change, % at 61.4 µM. 290,000 tested, under 10 active. AID 1766; inconclusive = falling polarisation curve, or a change in total fluorescence; inactive = total fluorescence flat and polarisation flat or rising; no compound was filed as active; the % refers to the polarisation; negative = inhibition;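 also: % of control where 0% means no effect; inhibitors lower the polarisation; unlabelled MLL peptide was the positive control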
# CtBP-E1A blk – blocks the CtBP interaction with E1A | AlphaScreen GST-E1A/His-CtBP binding, 1536-well; active compounds read low; control for the full effect not named in the record | 340,000 tested, 0.49% active | activity change, % (no concentration beside the values); in the data active means activity change below about -65%; inconclusive means about -30% to -65%; inactive means above about -30%; also: % is scaled to controls: 0 for no effect and ±100 for the full control effect
#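 In 5 uL wells, 23 nL compound meets equimolar GST-E1A and His-CtBP (5X stock 125 nM each) for 2 h, 37 °C. Beads (5X, 50 ug/mL) then 1 h, 37 °C, dark.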
# gsp ag – activates gsp, the McCune-Albright syndrome mutation; gsp mutant cells, cAMP HTRF, 30 min; control for the full effect not named in the record; Potency, µM (doses to about 76.9 µM), inactives show at the highest dose activation (cAMP increase), hits mostly activators; 340,000 tested, 0.13% active; AID 624287; active = well fitted activation curve with a large enough effect; inconclusive = small, poorly fitted or top-dose-only effect, or another doubt; inactive = no such curve, though single readings can be large or run the other way; cell line not stated here;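 also: phosphodiesterase inhibitor Ro 20-1724 added with compounds to block cAMP breakdown; potency is read from the fitted curve at half-maximal effect; nearly all actives have a fitted effect of over 60% in size; about a fifth of the inactives were tested at one dose only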
#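 Cells stably selected in G418 were plated at 2000/well, grown 16-24 hr, then given compounds in DMSO with the PDE inhibitor […] (300 uM solution added) for 30 min at 37C; cAMP was read by HTRF.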
# gsp antagonist – antagonists of gsp mutant (McCune-Albright syndrome); gsp-mutant cells, cAMP HTRF, 30 min; control for the full effect not named in the record; Potency, µM (doses to about 76.9 µM), without a hit: top-dose activity change, negative = inhibition, usual class: inhibitors; 340,000 tested, 0.4% active; AID 624288; active = falling curve of any shape with a large fitted effect; inconclusive = falling curve, mostly with a smaller effect; inactive = flat or rising curve; cell line not stated here;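 also: intracellular cAMP measured with PDE inhibitor Ro 20-1724 present during compound exposure; potency is read from the fitted curve at half-maximal effect; % is scaled to controls: 0 for no effect and ±100 for the full control effect; nearly all actives have a fitted effect of over 65% in size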
#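 Cells, 2000/well, grown 16–24 h in DMEM 10% FBS with 0.5 mg/ml G418, then compounds plus […] (300 uM addition stock), 30 min at 37C. cAMP read by HTRF (cAMP-d2 and anti-cAMP antibody-K in lysis buffer) after 30 min RT.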
# Sfp PPTase inh – blocks B. subtilis Sfp PPTase activity; Potency, µM, for the others: max response, negative = inhibition, usual class: inhibitors; 310,000 tested, 3.5% active; Biochemical Sfp PPTase activity, qHTS; Q9F4F7; active = well fitted inhibition curve with a large enough effect; inconclusive = small, poorly fitted or top-dose-only effect, or another doubt; inactive = no such curve, though single readings can be large or run the other way;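 also: the enzyme is Sfp with the accession as filed and its product quenches rhodamine fluorescence; potency is read from the fitted curve at half-maximal effect; 0% = enzyme reaction without inhibitor and -100% = no enzyme wells; top concentration of the series not given in the record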
#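 After 15 min at room temperature with compound, 15 nM Sfp received 5 uM rhodamine-CoA plus 12.5 uM BHQ-2-ybbR (50 mM Hepes pH 7.6, 10 mM MgCl2). Rate came from the fluorescence difference over 30 min, ex 525/em 598 nm.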
# * = called active by the depositor; ? = inconclusive; · = not tested or not shown; & = joins results of further samples; [ ] = another dose, or the depositor's remark. Outcome played no part in choosing rows; overall some 5.3% were active at least once.
SMILES,ClpP mod,TRPV1 PAM,Menin-MLL FL inh,CtBP-E1A blk,gsp ag,gsp antagonist,Sfp PPTase inh
Cc1ccc(NC(=O)CCC(=O)N/N=C/c2ccc([N+](=O)[O-])o2)cc1C,1.3%,-4.8,0.1,-1.5,?,2.3%,6.0%
C#CCSc1nnc(-c2sc(-c3ccccc3)nc2C)n1C,17.8µM*,-8.5,5.0,-0.6,15.9%,-7.3%,20.6%
COCCNc1ccc([N+](=O)[O-])cc1C(=O)Nc1cccc(C)n1,·,-12.4,-0.7,2.0,0.5%[15.4 µM],-7.9%,-5.1%
COc1ccc(-c2nnc(NC(=O)c3ccc(S(=O)(=O)N(C)CC4CCCO4)cc3)o2)c(OC)c1 (stereo not given),-0.7%,4.2,·,-26.3,13.7%[15.4 µM],-11.0%,1.9%
CCCC1C(c2ccco2)NC(c2ccco2)CC1(C)O (stereo not given),-6.0%,7.0,-1.5,1.8,22.4%,-10.8%,-25.6%
CSC1=NCCN1C(=O)c1ccc2c(c1)OCO2,-5.2%,5.2,-1.4,3.7,4.2%,5.0%,12.9%
CCn1c(O)c(C=C2N=c3ccccc3=N2)sc1=S,?,18.4,-3.5,6.3,-0.6%[15.4 µM],-0.3%,6.3%
O=C(c1cc(C2CC2)nn1-c1ccccc1)N1CCN(Cc2ccccc2F)CC1,-1.1%,-17.1,·,1.8,-3.4%,-5.5%,·
CC1CCN(C2=NC(=O)/C(=C/c3cccc(O)c3)S2)CC1,0.0%,-25.6,4.0,-12.9,6.2%[15.4 µM],2.0%,0.4%
COc1cc(/C(C)=N/NC(=O)c2cccc(S(=O)(=O)N3CCCC3)c2)cc(OC)c1OC,-0.8%,-2.3,·,-2.0,-18.1%,23.4%,10.4%
Cc1onc(-c2ccccc2Cl)c1C(=O)Nc1nc2ccc(S(C)(=O)=O)cc2s1,-9.3%,0.0,1.1,-10.2,1.1%,-24.5%,-10.6%
O=C(N/N=C/c1ccc(F)cc1)c1ccc(OCc2ccccc2)cc1,2.0%,-1.5,2.9,3.2,26.8%,-17.0%,8.2%
Cc1ccccc1-n1c(SCC(=O)NCC2CCCO2)nc2c([nH]c3ccccc32)c1=O (stereo not given),-17.2%,-11.8,·,3.5,-1.1%,-14.8%,14.7%
Cc1cc(C)cc(NC(=O)CN2C(=O)c3ccccc3C2=O)c1,0.3%,-2.3,-1.2,0.9,13.8%[15.4 µM],9.4%,10.8%
CCCCC(CC)COC1(c2ccccc2)OC(=O)c2ccccc21 (stereo not given),-1.7%,14.8,5.6,61.4,3.6%,8.6%,-2.4%
CC1CCN(C(=O)CSc2nnc(-c3cccnc3)o2)CC1,·,-15.2,·,-1.4,2.0%,3.9%,7.8%
CC(C)NC(=O)c1cc(-c2cccs2)nc2ccccc12,4.3%,13.3,0.4,·,5.7%,-0.8%,9.6%
Cn1nnnc1SCC(=O)NNC(=O)c1ccc(F)cc1,-3.9%,5.6,-2.1,2.8,10.0%[15.4 µM],9.4%,-9.0%
Cc1ccc(Cl)cc1NC(=O)COC(=O)C12CC3CC(CC(C3)C1)C2,0.1%&0.8%,-4.5&-4.7,-1.4&0.5,16.0&13.4,-11.5%&-1.4%,?,-0.1%&3.8%
Cc1cc(C(=O)CN2C(=O)CCC2=O)c(C)n1Cc1ccccc1,-2.4%,-1.4,1.2,20.6,-0.9%,20.3%,-4.1%
CN(Cc1ccccc1)C(=O)c1[nH]cnc1C(=O)Nc1nccs1,0.5%,-1.7,·,?,·,6.2%,·
CC(=O)Nc1ccc(S(=O)(=O)NCCC(=O)NCc2ccco2)cc1,0.0%,·,·,0.5,11.9%,·,·
O=C1COc2c1ccc(O)c2O,·,·,·,-16.7,12.2%,0.9%,·
COc1ccccc1-n1ccnc(SCC(=O)NCCc2ccccc2)c1=O,-10.7%,?,·,6.4,-0.8%,-9.6%,·
CCc1cc(C(=O)N2CCCC(CNC(=O)c3ccc(-c4ccccc4)cc3)C2)no1 (stereo not given),·,0.3,4.4,7.2,?,-12.5%,10.2%

# The closing 2 compounds of the section before are carried over, then new ones follow.
SMILES,ClpP mod,TRPV1 PAM,Menin-MLL FL inh,CtBP-E1A blk,gsp ag,gsp antagonist,Sfp PPTase inh
COc1ccccc1-n1ccnc(SCC(=O)NCCc2ccccc2)c1=O,-10.7%,?,·,6.4,-0.8%,-9.6%,·
CCc1cc(C(=O)N2CCCC(CNC(=O)c3ccc(-c4ccccc4)cc3)C2)no1 (stereo not given),·,0.3,4.4,7.2,?,-12.5%,10.2%
COCCN(CC(=O)Nc1cc(Cl)ccc1-n1cncn1)Cc1nc2ccccc2c(=O)[nH]1,1.1%,0.1,·,1.1,-42.5%[inhibitor],-2.8%,·
CC(=O)c1cccc(OCc2cc(C(=O)NCc3nc(C)c(C)s3)no2)c1,-2.8%,4.7,·,-2.8,2.7%,-12.0%,-1.3%
CCCc1[nH]n(-c2nc3ccccc3s2)c(=O)c1C=NCC1CCCO1 (stereo not given),-2.0%,9.6,0.5,0.1,6.2%,?,-15.7%
Cc1ccc(NC(=O)/C=C\C(=O)NCC(=O)O)cc1,-1.0%,-3.3,-2.5,1.6,-6.1%,4.6%,70.8µM*
COc1ccc2[nH]c(=O)c(CNc3cc(C)ccc3C)cc2c1,·,2.7,-8.8,0.0,-24.9%[15.4 µM],-9.7%,50.1µM*
CC1(c2ccc(OC(F)F)cc2)NC(=O)N(CC(=O)Nc2ccc3c(c2)OCO3)C1=O (stereo not given),0.0%,24.6,4.8,4.6,-7.1%,-1.2%,-2.3%
COc1ccc(C=C(C#N)c2ccc(OC)cc2)cc1,1.1%,·,·,16.9,9.6%[15.4 µM],-12.9%,·
Cn1c(=O)[nH]c2ncccc21,-1.5%,3.8,-13.0,-1.4,16.5%,0.7%,19.5%
O=C(NCC1(N2CCCCC2)CCCCC1)C1CC(=O)N(c2ccc3c(c2)OCCO3)C1 (stereo not given),8.91µM*,?,-4.0,-7.1,-0.9%[15.4 µM],9.5%,-9.3%
Cc1cc(OCC(=O)NC(C)C)cc(C)c1Br,0.9%,-14.0,0.8,13.0,-2.5%[15.4 µM],2.9%,3.8%
Cc1cc(NC(=O)COn2nnc3ccccc32)no1,-1.6%,-3.7,3.4,-7.3,-65.9%[inhibitor],1.9%,9.0%
Cn1c(CNC(=O)c2ccccc2F)nnc1SCc1nc2ccccc2c(=O)[nH]1,·,6.9,2.1,·,·,·,7.2%
COc1ccc(C(=O)Nc2nncs2)c(OC)c1,-11.3%,12.9,0.5,-13.5,?,13.2%,-13.4%
CCc1ccccc1N(C(=O)Cn1nnc2ccccc21)C(C(=O)NCCOC)c1ccco1 (stereo not given),2.4%,·,2.0,4.2,0.0%,-12.3%,-2.3%
CC(c1ccccc1)N1CC(C(=O)Nc2ccc(F)cc2)CC1=O (stereo not given),-1.3%,-7.8,·,-21.2,-32.9%[inhibitor],-0.3%,·
Cc1cc(C)c2cc(C(=O)N3CCN(c4ncccc4C(F)(F)F)CC3)[nH]c2c1,·,-3.6,-3.0,-24.5,?,-2.5%,-15.8%
CCCCCc1nc2sc3c(c2c(=O)n1N)CCC3,-0.8%,7.6,-0.8,2.3,2.2%,8.9%,7.9%
OCCCc1nc2ccccc2n1Cc1ccccc1,-3.1%,-18.2,-9.6,3.3,-8.5%,-4.1%,4.2%
COc1ccc(OC)c(NC(=O)CSc2nc3c(c(=O)n(C)c(=O)n3C)n2C)c1,0.5%,-6.2,-1.6,10.9,-7.8%,4.9%,12.0%
O=C(NC1CCCc2c1cnn2-c1cc(F)cc(F)c1)c1ccccn1 (stereo not given),0.9%,·,·,9.9,-39.3%[inhibitor],-1.4%,·
COc1ccc2c(C)cc(SCC(=O)Nc3ccc(Cl)cn3)nc2c1,-7.9%,2.0,15.6,-2.1,14.3%,-2.2%,-17.1%
CCOC(=O)N1CCN(S(=O)(=O)c2ccc(C)cc2)CC1,0.8%,1.5,-1.4,4.1,5.3%[15.4 µM],4.7%,11.9%
CCOC(=O)C1CCN(C(=O)c2ccc3c(SCC(=O)O)c4c(nc3c2)CCCC4)CC1,·,?,1.4,0.0,?,6.0%,6.8%
S=c1[nH]nc(-c2ccc3ccccc3n2)n1-c1ccc2c(c1)OCCO2,-0.6%,-2.2,4.4,-13.7,-11.9%[15.4 µM],-26.3%,-2.0%
COCCn1nnnc1C(C(C)C)N(Cc1ccccc1)Cc1cc2cc(OC)ccc2[nH]c1=O (stereo not given),-21.2%,-10.2,2.1,-2.3,?,-0.9%,-13.5%
CCC(C(=O)OC)(C(=O)OC)c1ccc([N+](=O)[O-])cc1,·,1.8,2.5,-15.3,-24.6%,-0.9%,9.0%

# A stretch from further up:
SMILES,ClpP mod,TRPV1 PAM,Menin-MLL FL inh,CtBP-E1A blk,gsp ag,gsp antagonist,Sfp PPTase inh
OCCCc1nc2ccccc2n1Cc1ccccc1,-3.1%,-18.2,-9.6,3.3,-8.5%,-4.1%,4.2%
COc1ccc(OC)c(NC(=O)CSc2nc3c(c(=O)n(C)c(=O)n3C)n2C)c1,0.5%,-6.2,-1.6,10.9,-7.8%,4.9%,12.0%
O=C(NC1CCCc2c1cnn2-c1cc(F)cc(F)c1)c1ccccn1 (stereo not given),0.9%,·,·,9.9,-39.3%[inhibitor],-1.4%,·
COc1ccc2c(C)cc(SCC(=O)Nc3ccc(Cl)cn3)nc2c1,-7.9%,2.0,15.6,-2.1,14.3%,-2.2%,-17.1%
CCOC(=O)N1CCN(S(=O)(=O)c2ccc(C)cc2)CC1,0.8%,1.5,-1.4,4.1,5.3%[15.4 µM],4.7%,11.9%
